Screening data: PubChem, several laboratories
ALR H2O2 inh – inhibitors of human sulfhydryl oxidase ALR; P55789; purified ALR, DTT oxidation, H2O2 HRP-luminol luminescence; inhibition, % (test concentration not listed); 290,000 compounds, 3.8% hits; AID 485317;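 active = mean and each replicate at 75% or more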;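 note: stock transfer was 7.5 nL into about 7.5 µL; 0% = neutral wells and 100% = wells with inactivated enzyme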
HNF4A DNA FP – change in binding of human HNF4 alpha to DNA. P41235. HNF4a-FITC DNA binding, fluorescence polarization, 1 h. activity change, % at 10 µM. 360,000 compounds, 0.3% hits. AID 1224865; in the data active = activity change above about 30%, passing the limit was not always enough;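 note: controls were the assay level and a saturating level of protein; the project sought stronger binding though the title names inhibitors; some compounds called inactive have numbers as strong as hits; positive values seem to mean higher polarization but the record does not say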
Target sequence (P41235 whole entry, looked up): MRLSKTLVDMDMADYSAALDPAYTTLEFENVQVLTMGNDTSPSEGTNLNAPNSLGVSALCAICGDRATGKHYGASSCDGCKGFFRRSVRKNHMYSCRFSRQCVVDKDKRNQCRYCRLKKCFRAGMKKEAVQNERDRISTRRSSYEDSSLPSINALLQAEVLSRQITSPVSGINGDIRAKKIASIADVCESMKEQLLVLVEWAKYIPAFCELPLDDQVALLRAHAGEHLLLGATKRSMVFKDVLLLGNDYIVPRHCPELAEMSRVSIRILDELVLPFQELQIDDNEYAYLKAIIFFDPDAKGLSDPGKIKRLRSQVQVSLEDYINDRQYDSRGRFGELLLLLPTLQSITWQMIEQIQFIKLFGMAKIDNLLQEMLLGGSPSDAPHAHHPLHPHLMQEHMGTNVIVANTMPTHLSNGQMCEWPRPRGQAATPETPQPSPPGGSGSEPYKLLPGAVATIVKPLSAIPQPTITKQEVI
UCH37 DUB inh – inhibitors of human deubiquitinating enzyme UCH37; Q9Y5K5; purified proteasome/UCH37, Ub-AMC cleavage fluorescence; inhibition, % (no concentration beside the values); 330,000 compounds, 0.33% hits; AID 588478;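 active = mean of two replicates above 20%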;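 note: 0% = compound-free wells with enzyme and 100% = wells lacking proteasome; stock transfer was 100 nL into about 20 µL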
Target sequence (Q9Y5K5 whole entry, looked up): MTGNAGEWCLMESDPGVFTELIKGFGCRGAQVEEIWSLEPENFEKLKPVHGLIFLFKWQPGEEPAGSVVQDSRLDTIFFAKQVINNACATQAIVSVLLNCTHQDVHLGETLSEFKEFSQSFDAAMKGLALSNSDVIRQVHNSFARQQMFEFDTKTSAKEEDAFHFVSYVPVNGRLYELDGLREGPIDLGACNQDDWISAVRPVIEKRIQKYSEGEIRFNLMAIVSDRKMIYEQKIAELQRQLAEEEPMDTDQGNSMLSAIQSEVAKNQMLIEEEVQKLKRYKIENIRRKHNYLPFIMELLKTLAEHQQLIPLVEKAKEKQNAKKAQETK
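Material: Human UCH37 enzyme supplied as purified proteasome complex | Schedule: 30 min compound-proteasome preincubation then 25 min substrate reaction, room temperature | Detection: AMC fluorescence from Ub-AMC cleavage, excitation 355 nm, emission 460 nm | Benchmarks: Wells without proteasome as full block, compound-free enzyme plus substrate as uninhibited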
FGF22 binding – FGF22 (human) thermal shift binding | Q9HCT0 | calls only at 9.99 µM | recombinant FGF22 thermal shift, SYPRO orange fluorescence; percent of sucrose octasulfate shift, DMSO zero | AID 651658 | 340,000 compounds, 1.5% hits;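 active = melting point raised past a set limit in the mean and every replicate; three in four hits are not shown here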
Target sequence (Q9HCT0 whole entry, looked up): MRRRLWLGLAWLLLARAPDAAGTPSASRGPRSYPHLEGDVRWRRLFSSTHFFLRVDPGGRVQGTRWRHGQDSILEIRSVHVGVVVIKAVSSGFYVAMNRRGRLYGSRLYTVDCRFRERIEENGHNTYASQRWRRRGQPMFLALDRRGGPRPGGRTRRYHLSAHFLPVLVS
Ecoli rRNA inh – selective bacterial rRNA inhibition in E. coli; 350,000 compounds, 1.6% hits; GFP signal change (wild-type ribosome), % (test concentration not listed); AID 720706; E. coli WT GFP vs humanized-ribosome RFP mutants, fluorescence, 24 h; active compounds read low; DMSO median 0, no signal -100;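 active = significant combined selectivity score with lowered wild-type GFP, culture density cut under 30%, mutant RFP and density less affected; inactive = any of these conditions unmet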; note: one replicate is shown; some compounds called inactive have numbers as strong as hits
Beta2AR agonist – human beta-2 adrenergic receptor agonism by FAP; response, % (test concentration not listed); 340,000 compounds, 0.43% hits; Am2.2-beta2AR cells, FAP receptor internalization, flow cytometry; reference of the scale not given here; AID 504454;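 active = response above a set limit, near 3 SD of response in nonfluorescent compounds, cut at about 42% in these data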;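 note: stock transfer was 100 nL into about 11 µL; a reference agonist was the positive control; negative values mostly stem from fluorescent compounds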
Ecoli growth – inhibitors of Escherichia coli growth | OD600, 23 h; active compounds read low | OD600 absorbance (concentration not given with the values) | 330,000 compounds, 0.21% hits | AID 1053175;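 active = OD600 absorbance below the run mean of sample wells minus 3.6 SD, in any replicate, cut at about 0.56 in these data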;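 note: stock transfer was 300 nL into about 60 µL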
Ecoli rRNA inh OD600 – also measured in Ecoli rRNA inh; calls as there; OD600 change, %; measured here: OD600 growth;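 optical density of the mix in the first replicate; 0 = DMSO median and -100 = no signal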
Ecoli rRNA inh RFP – second read-out of Ecoli rRNA inh, no call of its own (marks repeat the call); RFP signal change, %; measured here: RFP humanized mutant strains;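 first replicate; 0 = DMSO median and -100 = no signal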
Active calls of the source: *; i = inactive; . = not tested or not shown; & = joins results of further samples. This is a subset (hit frequency here may not be typical).

FGF22 binding	Ecoli rRNA inh	Ecoli rRNA inh OD600	ALR H2O2 inh	UCH37 DUB inh	Ecoli growth	Ecoli rRNA inh RFP	Beta2AR agonist	HNF4A DNA FP	Structure
i	1	2	.	-1.4	0.68	2.2	-8	0.9	CCC(C)(C)n1nnnc1C(c1ccccc1F)N1CCN(C(=O)c2ccco2)CC1 (stereo not drawn)
i	5	0	-6	1.8	0.66	-1.5	-1	-0.2	Cc1cc(Cl)ccc1OCCn1cncn1
i	-11	2	1	5.4	0.62	14	6	3.1	NC(=O)c1ccc(NCCc2ccccc2)c([N+](=O)[O-])c1
.	.	.	-2	-0.5	0.74	.	-2	2.4	Cc1ccc(CN2CCc3c(OCc4ccc(F)cc4)cccc3C2=O)cc1
i	8	-1	8	7.3	0.67	-14	-6	2.2	O=C(NNS(=O)(=O)c1ccccc1[N+](=O)[O-])c1ccccc1[N+](=O)[O-]
i	3	7	8	-1.4	0.69	-0.2	-1	0.5	O=C(O)c1ccc(NS(=O)(=O)c2ccc(NC(=O)c3ccccc3Cl)cc2)cc1
i	9	4	.	8.7	0.67	2.5	0	-5.6	Cc1cc(C(=O)COc2ccc([N+](=O)[O-])cc2)c(C)n1C1CC1
i	.	.	.	-0.3	0.66	.	4	2.1	Cc1ccc(NS(=O)(=O)c2ccc(C(=O)OCC(=O)N3CCCCC3)cc2)cc1
i	-2	6	2	11	0.63	-1.3	-1	4.2	CC1CN(c2ccc([N+](=O)[O-])cn2)CC(C)O1 (stereo not drawn)
i	-2	0	-3	2.3	0.73	-2.9	7	-3.6	CCCCn1c(SCC(=O)OCC)nc2c1c(=O)[nH]c(=O)n2C
i	-2	9	8	5.2	0.66	-1.7	5	-2.9	CCC(C)c1ccccc1N1CC(C(=O)N(C)CC(=O)Nc2cccc(F)c2)CC1=O (stereo not drawn)
.	.	.	64	-1.3	0.72	.	3	0.8	Cc1ccc(-c2ccc(CCC(=O)O)n2NC(N)=S)cc1
i	0	8	.	1.0	0.65	-2.5	-1	-2.7	O=C(CN1CCOCC1)Nc1ccc(Br)cc1
i	16	8	-8	2.7	0.62	6.2	-5	2.6	NC(=O)C1CCN(C(=O)COCc2cc(-c3ccc4c(c3)OCO4)on2)CC1
.	.	.	0	1.7	0.71	.	-3	-1.1	CCNC(=O)NC(=O)C(C)OC(=O)c1oc2ccccc2c1CSC1CCCCC1 (stereo not drawn)
i	-4	6	-8	-5.1	0.7	3.8	-6	1.9	Cc1cc(C)c2cc(C(=O)Nc3ccc(C)c(F)c3)[nH]c2c1
.	.	.	-2	-0.1	0.7	.	13	-4.2	O=C(Nc1ccc(N2CCCCC2)c(Cl)c1)c1ccc(N2CCOCC2)c([N+](=O)[O-])c1
i	14	12	1	1.4	0.65	3.4	14	-2.8	NC(=O)c1ccccc1NC(=O)CCN1C(=O)c2ccccc2C1=O
i	4	-14	.	-0.9	0.7	-1.6	5	9.0	CCN(CC)CCNC(=O)C(=O)NCC1OCCN1S(=O)(=O)c1cccs1 (stereo not drawn)
.	.	.	.	-12	0.69	.	1	2.7	CCOc1cccc(C(=O)Nc2nnc(-c3ccco3)s2)c1
i	3	10	15	1.8	0.77	3.4	35	-4.9	Cc1ccc(OCc2nnc(SCC(=O)N3c4ccccc4Sc4ccc(Cl)cc43)o2)cc1
i	10	14	.	2.0	0.63	2.8	2	-0.1	O=c1[nH][nH]c(=O)c2c1[nH]c(=S)n2Cc1ccccc1
.	.	.	3	5.8	0.66	.	-6	3.5	O=C(Nc1ccc(N=Nc2ccccc2)c(NC(=O)C2CCCO2)c1)C1CCCO1 (stereo not drawn)
.	.	.	-5	0.1	0.68	.	9	2.2	CNS(=O)(=O)c1ccc(N2CCCC2=O)c([N+](=O)[O-])c1
i	.	.	-6	-1.3	0.72	.	1	-0.7	O=C(COC(=O)c1ccc2ncsc2c1)Nc1ccccc1Cl
.	.	.	-1	4.6	0.77	.	-2	1.8	CCn1c(-c2ccc(F)cc2)n[nH]c1=S
i	.	.	.	4.3	0.68	.	-2	1.8	COCCCNC(=S)NNC(=O)c1csc(C)n1
.	.	.	.	1.1	0.64	.	0	0.2	CCOC(=O)c1nnn(-c2nonc2-c2ccccc2)c1C
i	13	11	91*	1.4	0.73	2.4	7	2.5	CCCN1CNc2c(c(=O)[nH]c(=S)n2CCc2ccccc2)C1
i	7	5	.	3.2	0.68	0.3	-15	1.1	O=C1CCCN2N=C(SCC(=O)Nc3cccc(Cl)c3)SC2=N1
i	-1	9	90*	3.4	0.65	0.0	0	-5.6	COc1ccc(NC2CCCN(C(=O)COc3ccc(C)cc3)C2)cc1 (stereo not drawn)
i	7	0	.	3.7	0.66	-1.6	1	-1.7	CC(NC(=O)CCl)c1ccccc1Br (stereo not drawn)
i	-3	1	-4	6.3	0.71	0.4	1	6.3	CC(C)CC1(C(=O)NCc2ccccn2)C=CCN1C(=O)c1ccccc1 (stereo not drawn)
i	17	-2	-3	3.3	0.65	2.0	-1	1.0	O=C1C=C(Nc2ccccc2)CC(c2ccccc2)C1 (stereo not drawn)
i	1	1	0	0.8	0.66	1.4	8	-1.1	COc1cccc(CNCc2cc(OC)cc(OC)c2)c1
i	7	14	6	2.9	0.67	-1.4	-3	-1.8	CC(C)CNC(=O)[C@H](Cc1ccccc1)NC(=O)c1cccs1
.	.	.	2	-62	0.75	.	0	-1.1	CC(C)c1cc(C(N)=O)c(NC(=O)c2cccc(COc3ccc(Cl)cc3)c2)s1
i	-3	-5	2	3.8	0.7	0.5	-23	3.1	S=C(NC1CC2CCC1C2)N1CCN(c2cccc(Cl)c2)CC1 (stereo not drawn)
.	.	.	.	1.3	0.66	.	-8	-1.3	COc1ccccc1-c1cc(C(=O)NCCc2ccccc2)no1
i	-1	-3	1	5.4	0.66	0.4	14	-1.0	Cc1cccc(-n2c(SCC(=O)N3CCC(C(=O)O)CC3)nc3ccccc3c2=O)c1C
i	.	.	-9	4.9	0.63	.	-5	8.3	O=C(COC(=O)c1c[nH]c2ccccc12)Nc1cccc(F)c1
i	5	7	0	4.7	0.63	-0.4	6	16	COC(=O)/C=C1/SC(=NC(=O)c2ccccc2)NC1=O
.	.	.	0	8.6	0.74	.	2	-1.4	COc1cccc(N=Cc2c[nH][nH]c2=O)c1
.	.	.	-4	2.5	0.72	.	-1	20	Cc1ccc(-n2nnnc2C(=Cc2ccc(N(C)C)cc2)c2nnnn2-c2ccc(C)cc2)cc1
i	-21	-15	-5	-0.7	0.7	11	-6	-1.8	O=C(c1ccc(Br)cc1)c1sc(N2CCOCC2)nc1-c1ccccc1
i	-30	-55	.	-8.0	0.64	-1.1	-1	3.4	COc1ccc2oc(=O)cc(CN(C)Cc3ccccc3)c2c1
i	14	12	-3	.	.	-1.8	0	3.9	Fc1cccc(/C=N/N=C/c2cccc(F)c2)c1
i	-12	-8	.	.	.	7.3	.	-23	Clc1ccc2nc(-c3ccco3)c(Cc3ccsc3)n2c1
i	5	-9	8	-1.8	0.69	1.2	1	3.2	NS(=O)(=O)c1ccc(CCNC(=O)CSc2nc3ccccc3c(=O)n2CCC(=O)N2CCCCC2)cc1
i	2	-7	-14	-3.7	0.68	-3.5	-3	3.8	CCCC(=O)Nc1nnc(-c2ccc(Cl)s2)o1
i	.	.	9	0.4	0.69	.	-1	-0.7	O=C(CCN1C(=O)c2ccc(Br)cc2C1=O)NC1CCCCC1
.	.	.	-31	0.5	0.7	.	-7	-2.6	CCCC(=O)c1c[nH]c(C(=O)NCc2ccco2)c1
.	.	.	.	1.9	0.72	.	3	0.3	O=S(=O)(c1ccccc1)c1nc(-c2ccco2)oc1NCc1cccnc1
.	.	.	-26	1.8	0.65	.	-7	3.8	CSCc1ccc(C(=O)Nc2cccc(C)c2C)cc1
i	-17*	-0.4*	.	-6.8	0.68	0.8*	3	-2.4	O=C(NN=Cc1c(O)ccc2ccccc12)C1CC1
.	.	.	5	1.5	0.72	.	12	-0.1	C=CCOc1ccc(CNn2c(C)n[nH]c2=S)cc1OC

ALR H2O2 inh, hit marks shown above.
FGF22 binding	Ecoli rRNA inh	Ecoli rRNA inh OD600	ALR H2O2 inh	UCH37 DUB inh	Ecoli growth	Ecoli rRNA inh RFP	Beta2AR agonist	HNF4A DNA FP	Structure
i	13	11	91*	1.4	0.73	2.4	7	2.5	CCCN1CNc2c(c(=O)[nH]c(=S)n2CCc2ccccc2)C1
i	-1	9	90*	3.4	0.65	0.0	0	-5.6	COc1ccc(NC2CCCN(C(=O)COc3ccc(C)cc3)C2)cc1 (stereo not drawn)

Carrying on:
FGF22 binding	Ecoli rRNA inh	Ecoli rRNA inh OD600	ALR H2O2 inh	UCH37 DUB inh	Ecoli growth	Ecoli rRNA inh RFP	Beta2AR agonist	HNF4A DNA FP	Structure
i	-5	-7	9	6.3	0.73	-0.9	10	2.4	O=C(Cn1c(=O)oc2cc(S(=O)(=O)N3CCCC3)ccc21)N1CCc2ccccc2C1
i	9	6	-1	5.1	0.69	-0.5	3	0.0	O=C(NC(=O)c1ccc(F)cc1F)Nc1ccc(Cl)cc1
.	23	15	-13	1.9	0.69	-1.8	5	-2.2	O=C(Oc1nsnc1N1CCOCC1)N1CCCC1
.	.	.	.	1.7	0.67	.	0	-2.6	CCOc1ncccc1C(=O)OCC(=O)c1cc(C)n(Cc2ccco2)c1C
i	-7&-21	-10&-26	-3	4.1	0.66	-1.5&-4.3	-8	5.1	COc1ccc(OC)c(N(CC(=O)Nc2cccnc2)S(=O)(=O)c2ccc(C)cc2)c1
i	3	2	-4	0.3	0.69	-9.4	7	-1.0	CC1CC(C)CN(C(C)C(=O)Nc2cc(S(=O)(=O)N3CCCCC3)ccc2Cl)C1 (stereo not drawn)
i	-21*	7.6*	.	.	.	0.4*	.	-2.8	O=[N+]([O-])c1ccccc1C(=Nc1ccccc1)c1c(O)cc(O)cc1O

Complete entries, looked up by structure. Screens in order: FGF22 binding | Ecoli rRNA inh | Ecoli rRNA inh OD600 | ALR H2O2 inh | UCH37 DUB inh | Ecoli growth | Ecoli rRNA inh RFP | Beta2AR agonist | HNF4A DNA FP
`O=C(COC(=O)c1c[nH]c2ccccc12)Nc1cccc(F)c1` in the list: i | . | . | -9 | 4.9 | 0.63 | . | -5 | 8.3
`CCCN1CNc2c(c(=O)[nH]c(=S)n2CCc2ccccc2)C1` in the list: i | 13 | 11 | 91* | 1.4 | 0.73 | 2.4 | 7 | 2.5
